Source: PubChem BioAssay (several laboratories)
CBX7 inh – CBX7 chromodomain binding inhibitors, primary screen, biochemical, AlphaScreen; Chromobox protein homolog 7 (Homo sapiens), O95931; AlphaScreen His6-CBX7 / biotin-H3K27me3 peptide binding; hits give low values; normalised signal (fraction of DMSO) (no concentration beside the values); 66,000 compounds, 1.1% hits; in the data active = normalised signal below about 0.5;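 note: 100 nL library stock added to about 20 µL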
Target sequence (O95931 whole entry, looked up): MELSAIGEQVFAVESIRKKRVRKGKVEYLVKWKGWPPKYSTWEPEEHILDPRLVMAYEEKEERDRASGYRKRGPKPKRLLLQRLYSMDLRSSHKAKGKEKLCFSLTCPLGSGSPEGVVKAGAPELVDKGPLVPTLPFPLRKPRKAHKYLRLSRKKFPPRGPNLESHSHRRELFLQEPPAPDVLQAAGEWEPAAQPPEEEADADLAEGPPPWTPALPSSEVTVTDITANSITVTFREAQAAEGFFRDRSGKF
CBX7 inh z-score – further read-out of CBX7 inh, marked with its call; z-score; measured here: z-score of CBX7 signal; some inactives read as strong as hits; reference of the scale not given here;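 same signal on another scale; lower means less binding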
An asterisk follows results filed as active.

SMILES	CBX7 inh	CBX7 inh z-score
O=C(NCCCc1ccccc1)C1CCCN(S(=O)(=O)c2cnc[nH]2)C1 (centres undefined)	1	0.57
Cc1ccc(C)c(OCCCCCCc2c(C)n[nH]c2C)c1	0.92	-4.2
NS(=O)(=O)c1ccc(NC(=O)Cn2nc(Cc3cccnc3)c3ccccc3c2=O)cc1	0.95	-1.8
CCCN(CCC)CCNC(=O)c1ccc2c(c1)N(Cc1c(F)cccc1Cl)C(=O)CS2	0.91	-0.15
O=C(NC1CCCCCCC1)C1c2ccccc2C(=O)N1Cc1ccccc1Cl (centres undefined)	0.81	-3.8
CCOc1ccc(-c2ncnn2-c2ccc(C)c(Cl)c2)cc1	1.3	5.6
Cc1ccc(C(=O)CC2(O)C(=O)N(Cc3ccccc3)c3ccccc32)cc1 (centres undefined)	1	0.02
Cc1ccc(-n2c3c(cc(C(=O)N4CCN(C)CC4)c2=O)C(=O)CCC3)cc1	0.98	-0.082
COc1cc2ccccc2cc1C(=O)Nc1c(C(N)=O)oc2ccccc12	1.1	0.28
Cc1ccc(S(=O)(=O)N2CCC(C(=O)NCc3ccc4c(c3)OCO4)CC2)cc1	0.96	-0.4
CCCS(=O)(=O)N1CCCC(C(=O)NCCc2cccc(C)c2)C1 (centres undefined)	0.98	-0.46
COc1ccc(CCNC(=O)c2nc(-c3ccc(C)cc3)oc2C)c(OC)c1	0.75	-2.7
O=C(CCCN1C(=O)c2cccnc2C1=O)NC(c1ccccc1)c1ccccc1	1.1	0.25
Cc1ccccc1OCc1nc(C#N)c(N2CCC(Cc3ccccc3)CC2)o1	0.84	-7
O=C(Nc1nnc(CCS(=O)(=O)c2ccc3ccccc3c2)s1)C1CCCCC1	0.95	-0.96

Pulled by compound from above, 2 records:
SMILES	CBX7 inh	CBX7 inh z-score
CCCN(CCC)CCNC(=O)c1ccc2c(c1)N(Cc1c(F)cccc1Cl)C(=O)CS2	0.91	-0.15
Cc1ccccc1OCc1nc(C#N)c(N2CCC(Cc3ccccc3)CC2)o1	0.84	-7

(next part)
SMILES	CBX7 inh	CBX7 inh z-score
CCCCc1nn(-c2ccccc2F)c2c1C(=O)CCC2	1.5	4.3
Cc1ccc(C)c(-n2c(Cc3cc(=O)[nH]c(=O)[nH]3)nnc2SC(C)C)c1	1	0.36
Cc1c(-c2ccc(OCc3ccccc3)cc2)nc2ccccc2c1C(=O)O	1	0.58
O=C1c2ccccc2C(=O)N1c1cccc(-c2csc(Nc3cccc(C(F)(F)F)c3)n2)c1	0.93	-0.94
Cc1cccc(-c2cc(C(=O)Nc3ccc(Br)cc3F)c3ccccc3n2)c1	0.99	-0.19
CCOC(=O)c1cnc2c(C(F)(F)F)cccc2c1NCCc1ccccc1	1.6	17
COc1ccc(C2C(=O)N(C3CCCCCC3)CC(=O)N2CCC2=CCCCC2)cc1 (centres undefined)	1.1	0.5
O=C(c1ccccc1)c1c(Nc2ccc(F)cc2)[nH]c(=O)c2ccccc12	0.89	-1.5
COc1cccc(C2C(N3C(=O)c4ccccc4C3=O)C(=O)N2c2cccc(C(F)(F)F)c2)c1 (centres undefined)	0.96	-0.82
COc1ccc(-c2nc3ccccn3c2NC(=O)CC(C)C)cc1	1	0.38
O=C(NCc1cccnc1)c1ccc2c(c1)N(Cc1ccc(F)cc1)C(=O)CS2	0.88	-1.2
Cc1ccc(Cc2nnc(NC(=O)c3cccs3)s2)cc1	0.97	-0.3
COc1ccc(-c2noc(-c3cc(OC)cc(OC)c3)n2)cc1	0.97	-0.11
CCOC(=O)c1c(N)nn2c3ccccc3n(C)c12	0.99	-0.42
COc1ccccc1NC(=O)C1CC1(c1cccc(C)c1)c1cccc(C)c1 (centres undefined)	1.1	2.1
COc1cccc(-c2cc(C(=O)Nc3cccc(Cl)c3C)no2)c1	1	-0.036
O=C(Nc1nc(-c2ccccc2)ns1)c1ccccc1F	0.94	-0.69
Cc1nnc(SCC(N)=O)c2ccccc12	0.81	-2.1
COc1cccc(-c2nn(C)c3sc(C(=O)NCC4COc5ccccc5O4)cc23)c1 (centres undefined)	1	0.83
CC1CCCN(c2nc3nonc3nc2Nc2ccc3c(c2)OCO3)C1 (centres undefined)	0.82	-9.1
Cc1ccc(NC(=O)C2CCCN(S(=O)(=O)c3cnc[nH]3)C2)c(Cl)c1 (centres undefined)	1	1.7
Cc1cc(Cl)ccc1NC(=O)c1c(-c2ccccc2Cl)noc1C	0.97	-0.35
Cc1nc2cc(-c3cccc(F)c3)nn2c(C)c1CCC(=O)NC1CCCC1	1	0.2
CCCCN(C)CCNC(=O)Cn1nc(-c2ccccc2)ccc1=O	0.96	-1.1
COc1cc2ccccc2cc1C(=O)Nc1ccc(-c2nc3ncccc3o2)cc1	0.92	-2.1
Cc1cccc(NC(=O)C(=O)NCCCN2CCOCC2)c1C	0.91	-1
CCOC(=O)N1CCN(C(=O)CN2C(=O)CC(C)(C)Sc3ccccc32)CC1	1	1.2
CCOc1ccc(N(C)S(=O)(=O)c2ccc3[nH]cc(C(=O)NCC(OC)OC)c(=O)c3c2)cc1	0.94	-0.83
CCc1ccccc1NC(=O)CC1Sc2ccc(C(F)(F)F)cc2NC1=O (centres undefined)	1	0.027
COc1ccc(CNC(=O)CCc2nc(-c3ccc(C)cc3)no2)c(OC)c1	1	0.38
c1ccc(CNc2ccc3nncn3n2)cc1	0.96	-0.48
Cc1c(N)cccc1-c1nc2ncccc2o1	0.99	-0.15
Cc1ccc(-c2nnc(NCc3ccccc3)c3ccccc23)cc1S(=O)(=O)NC(C)(C)CO	1.2	1.8
Cc1ccc(S(=O)(=O)Nc2ccc3c(c2)ncn3C2CCCCC2)cc1	0.82	-2.1
COc1ccc(OC)c(CN2CCN(Cc3ccc(Br)cc3)CC2)c1	0.94	-1.5
CC1(C)CC2(CCCN(Cc3nc4c(c(=O)[nH]3)C3(CCCCC3)Cc3ccccc3-4)C2)CCO1 (centres undefined)	0.85	-1.6
COc1ccc2[nH]c3c(c2c1)CCc1nonc1-3	1.1	2.8
COc1ccc(-c2nn(C)c3sc(C(=O)N4CCN(c5cccc(C)c5)C(C)C4)cc23)cc1OC (centres undefined)	0.74	-3.3
COc1cc2c(cc1OC)C(C(=O)NCCCN1CCOCC1)C1c3ccccc3CCN1C2=O (centres undefined)	1.1	0.92
Cc1ccc(-c2nc(C(=O)NC3CCC(C)CC3)c(C)o2)cc1 (centres undefined)	1	0.45
CN(C1CCCCC1)S(=O)(=O)c1ccc(C(=O)Nc2ccccc2-c2nc3ccccc3[nH]2)cc1	0.93	-0.082
Cc1noc(/C=C/c2cccs2)c1S(=O)(=O)N1CCC(C(=O)Nc2ccncc2)CC1	0.81	-0.39
COc1ccc(OC)c(NC(=O)Cn2cnc3c(nnn3Cc3ccc(F)cc3)c2=O)c1	0.82	-3
CCCN1Cc2cccc(C(=O)Nc3ccc(C(=O)OCC)cc3)c2C1=O	0.99	-0.12
Cc1csc(NC(=O)CN(C)S(=O)(=O)c2ccc3c(c2)n(C)c(=O)c(=O)n3C)n1	1.2	1.4
COc1ccccc1-c1cc(C(=O)Nc2sc3c(c2C#N)CCCC3)no1	1.1	1.1
O=C1CCCc2c1cc(C(=O)Nc1ccccc1Cl)c(=O)n2-c1ccccc1	1.4	4.6
Cc1ccc(OCC(=O)Nc2ccc3nn(-c4cccc(C(F)(F)F)c4)nc3c2)cc1C	0.93	-0.8
Cc1cc(C)cc(-n2ccnc2SCC(=O)Nc2ccc(C)cc2C)c1	0.87	-1.9
COc1ccc(/C=C/c2nc(-c3ccc(C)cc3)no2)cc1OC	0.97	-0.3
Cc1cccc(OCC(=O)Nc2cc(-c3nc4ncccc4o3)ccc2C)c1	0.96	-0.8
Cc1ccc(Nc2c(-c3ccc(Cl)cc3)nc3ncccn23)cc1C	1.1	2.4
CCCNC(=O)c1cc(C)nn1-c1ccccc1	1.1	1
N#Cc1ccc(NC(=O)c2nn3c(C(F)(F)F)cc(-c4ccccc4)nc3c2Cl)cc1	1.1	0.55
CCOc1ccc(C(=O)c2[nH]c(=O)c3ccccc3c2O)cc1Cl	0.95	-2.1
COc1cccc(C(=O)Nc2ccc3oc(-c4ccccc4Cl)nc3c2)c1	1.1	3
CC1CCN(S(=O)(=O)c2ccc3[nH]c(=O)cc(C(=O)NC(C)C)c3c2)CC1	0.97	-0.56
O=c1[nH]c2ccc(Cl)cc2c(-c2ccccc2)c1Sc1nc2ccccc2[nH]1	1	0.88
O=C(NCc1cccnc1)c1ccc2c(c1)NC(=O)c1ccccc1N2	1.1	0.4
O=C(NCc1ccc(F)cc1)c1cc(Nc2cccc(C(F)(F)F)c2)nc2ccccc12	1.4	11

Next section
SMILES	CBX7 inh	CBX7 inh z-score
CC(=O)N1CCc2cc(S(=O)(=O)NCCC(=O)N3CCN(Cc4ccccc4)CC3)ccc21	1	0.32
COc1ccc(Cl)cc1NC(=O)c1sc2nc(C)nc(N3CCCCC3)c2c1C	0.79	-3
Cc1c2c(nc3c(C(=O)NCc4ccc5c(c4)OCO5)cnn13)CCCC2	1	1.2
Cc1ccc2cc(CCNC(=O)c3cccc4ccccc34)c(=O)[nH]c2c1	0.97	-1.2
C=CCNC(=O)c1c(Oc2ccc(F)cc2)nc(C)c(Cl)c1C	0.81	-1.8
Cc1ccc(Nc2nc(-c3cc4ccccc4oc3=O)cs2)cc1	1.3	4.4
Cc1ccc2c(c1)C(c1ccccc1Cl)CC(=O)N2 (centres undefined)	1.1	1.2
O=C(NCCc1ccccc1Cl)C1CC(=O)N(C2CCCCC2)C1 (centres undefined)	1	-0.00043
CCN(CCCNC(=O)c1cc2c(s1)-c1ccccc1OC2)Cc1ccccc1	1.2	8.9
O=C(Nc1nnc(Cc2ccc(Cl)cc2Cl)s1)c1cccs1	1.1	0.2
CCOC(=O)C1CCCc2c1[nH]c1c(C(=O)NCc3ccccc3)cccc21 (centres undefined)	0.57	-12
COc1ccc(C(=O)Nc2c3c(nn2-c2ccc(F)cc2)CS(=O)(=O)C3)cc1OC	0.98	-0.19
Cc1sc2ncn(CC(=O)NCc3cccnc3)c(=O)c2c1S(=O)(=O)N1CC(C)CC(C)C1 (centres undefined)	1	0.91
Clc1ccc(OCc2nc3ccccc3n2CCCc2ccccc2)cc1	0.79	-2.7
CCOCCCNC(=O)c1ccc2c(c1)N(Cc1ccc(Cl)cc1)C(=O)c1ccccc1S2=O (centres undefined)	1	0.63
COc1ccc(-n2c(Cc3cc(=O)[nH]c(=O)[nH]3)nnc2SCC(=O)NCc2ccc(F)cc2)cc1	0.86	-2.2
CCOc1ccc(NC(=O)C(NS(=O)(=O)c2ccc3c(c2)CCN3C(=O)CC)C(C)C)cc1 (centres undefined)	0.92	-1.3
O=C(CSc1ccc2nnc(-c3ccccc3)n2n1)N1CCCc2ccccc21	0.99	-0.25
O=C(Nc1cccc(Cl)c1)c1cc(-c2ccco2)on1	1	0.37
COc1ccc(Nc2nc(C)cc(C)c2C(N)=O)cc1OC	1	-0.093
COc1cccc(NC(=O)Cn2cnc3c(nnn3Cc3ccc(F)cc3)c2=O)c1	0.96	-0.59
Cc1ccc(C)c(NC(=O)CSc2nnc(C)c3ccccc23)c1	0.72	-1.1
O=C(O)c1cccc(Nc2nc(-c3ccccc3)cs2)c1	1	0.21
O=C(NCCc1ccccc1)c1nc2nc(-c3cccs3)cc(C(F)(F)F)n2n1	1	0.057
CCOc1cc(C2NCCc3cc(OCC)c(OCC)cc32)ccc1OC (centres undefined)	1.3	3
Cc1c(C(=O)Nc2ccccc2C(N)=O)sc2nc(-c3ccccc3)cn12	0.96	-0.85
CCCCNCC1C(Oc2ccc(Cl)cc2)C(=O)N1c1ccccc1C (centres undefined)	1.2	2.7
O=C1CCCc2oc3ccc(NS(=O)(=O)c4cc(Cl)ccc4Cl)cc3c21	0.98	-0.46
COC(=O)c1cc2cc(CC(=O)c3ccc(O)cc3O)ccc2o1	1.1	0.13
Oc1ccccc1-c1nnc(COc2ccc(Cl)cc2Cl)o1	0.69	-5

Among those listed so far, these have a CF3 group.
SMILES	CBX7 inh	CBX7 inh z-score
O=C1c2ccccc2C(=O)N1c1cccc(-c2csc(Nc3cccc(C(F)(F)F)c3)n2)c1	0.93	-0.94
CCOC(=O)c1cnc2c(C(F)(F)F)cccc2c1NCCc1ccccc1	1.6	17
COc1cccc(C2C(N3C(=O)c4ccccc4C3=O)C(=O)N2c2cccc(C(F)(F)F)c2)c1 (centres undefined)	0.96	-0.82
CCc1ccccc1NC(=O)CC1Sc2ccc(C(F)(F)F)cc2NC1=O (centres undefined)	1	0.027
Cc1ccc(OCC(=O)Nc2ccc3nn(-c4cccc(C(F)(F)F)c4)nc3c2)cc1C	0.93	-0.8
N#Cc1ccc(NC(=O)c2nn3c(C(F)(F)F)cc(-c4ccccc4)nc3c2Cl)cc1	1.1	0.55
O=C(NCc1ccc(F)cc1)c1cc(Nc2cccc(C(F)(F)F)c2)nc2ccccc12	1.4	11
O=C(NCCc1ccccc1)c1nc2nc(-c3cccs3)cc(C(F)(F)F)n2n1	1	0.057

Other entries follow:
SMILES	CBX7 inh	CBX7 inh z-score
COc1ccc(NC(=O)C2CCCN(S(=O)(=O)c3cccs3)C2)cc1Cl (centres undefined)	0.94	-0.98
Cc1cc(Br)ccc1NC(=O)CNC(=O)Cn1cnc2sc(C)c(C)c2c1=O	1	0.3
O=C(NCc1ccccc1)C1CCN(C(=O)c2sccc2-n2cccc2)CC1	0.85	-4.2
Cc1c(C(=O)NC2CC2)oc2ccc(S(=O)(=O)N3CCOCC3)cc12	1.1	1.3
Cc1ccc(CC2CC(=O)N(c3ccc(C(=O)O)cc3)C2=O)cc1 (centres undefined)	1.1	0.62
CCc1ccc(-c2nc(CN3CCC(C(=O)NCc4ccc5c(c4)OCO5)CC3)c(C)o2)cc1	1.1	2.1
Cc1onc(-c2ccccc2Cl)c1C(=O)NCC(=O)O	1.1	0.58
CCOC(=O)c1cccc(NC(=O)c2ccc(OC)cc2)c1	1	0.0033
O=C(C1CCN(S(=O)(=O)c2cccnc2)CC1)N1CCN(Cc2ccccc2)CC1	1	1.1
O=c1[nH]c2ccccc2nc1-c1ccccc1NCc1ccccc1	1.1	0.73

Only part of the results is shown, so the mix of outcomes need not match the whole.
